Screening results from PubChem.
Cruzain noTriton: blocks cruzain activity in detergent-free assay; P25779; purified cruzain, Z-FR-AMC fluorescence, no detergent; Potency, µM, without a hit: max response, negative = inhibition, usual class: inhibitors; actives 2.3% (n = 200,000);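 also: plate controls were enzyme without inhibitor for no effect and buffer without enzyme for full effect; nearly all actives have a fitted effect of over 40% in size; top concentration of the series not given in the record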
Target sequence (P25779 123-467 limits assumed): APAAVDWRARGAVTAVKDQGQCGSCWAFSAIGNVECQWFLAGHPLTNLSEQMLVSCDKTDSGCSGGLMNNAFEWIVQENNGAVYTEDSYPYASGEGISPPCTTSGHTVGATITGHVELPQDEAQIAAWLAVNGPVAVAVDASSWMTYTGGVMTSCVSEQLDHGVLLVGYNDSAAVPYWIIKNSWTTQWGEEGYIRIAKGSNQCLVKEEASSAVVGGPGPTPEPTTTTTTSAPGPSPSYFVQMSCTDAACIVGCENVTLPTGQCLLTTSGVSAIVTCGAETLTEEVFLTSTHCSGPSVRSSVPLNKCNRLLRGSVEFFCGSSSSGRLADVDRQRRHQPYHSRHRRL
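Detergent-free condition (0.00005% Triton X-100) in acetate buffer pH 5.5 with DTT. 1.5 nM enzyme and compound were pre-mixed 15 min, then 2 uM Z-FR-AMC substrate added; reaction progress from fluorescence change between first and third reads (60 s).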
RE007 growth inh: less growth of the S. pombe RE007 Vpr strain | S. pombe RE007 Vpr strain, BacTiter-Glo ATP luminescence, 24 h; control for the full effect not named in the record | Potency, µM (top dose mostly 92.2 µM), inactives show top-dose activity change, negative = less growth | actives 0.21% (n = 360,000) | AID 651644; active = well fitted falling curve with a large enough effect; inconclusive = small, poorly fitted or top-dose-only effect; inactive = no such curve, though single readings can be large or run the other way;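 also: % is scaled to controls: 0 for no effect and ±100 for the full control effect; nearly all actives have a fitted effect of over 50% in size; the assay follows cell death caused by Vpr and the record does not say whether a fall means rescue or toxicity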
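Fission yeast RE007 carrying one integrated HIV-1 vpr copy, seeded at OD 0.01 in PMG+AL medium with 23 nL pinned compound. Grown 24 h at 30 degrees; viability read by BacTiter-Glo luminescence after 5 min.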
Marburg entry inh: inhibitors of Marburg virus binding or cell entry; Marburg virus pseudotyped entry inhibition, cell reporter; control for the full effect not named in the record; about a third of the inactives were read at about 46 µM; actives 1.8% (n = 300,000); Potency, µM (series often up to 37.8 µM), for inactives: at the top dose activity change, negative = inhibition, usual class: inhibitors; active = well fitted inhibition curve with a large enough effect; inconclusive = small, poorly fitted or top-dose-only effect, or effect the other way; inactive = flat fitted curve, though single readings scatter; tested in HEK293 cells; about a fifth of its hits are not listed in these tables; also: % is scaled to controls: 0 for no effect and ±100 for the full control effect; luciferase read-out
LASV entry inh: Lassa virus entry inhibition; Lassa virus pseudotype entry inhibition, cell reporter; control for the full effect not named in the record; actives 1.2% (n = 300,000); Potency, µM (top dose mostly 37.9 µM), without a hit: at the top dose activity change, negative = inhibition, hits mostly inhibitors; active means well fitted inhibition curve with a large enough effect; inconclusive means small, poorly fitted or top-dose-only effect, or effect the other way; inactive means flat fitted curve, though single readings scatter; tested in HEK293 cells; also: % is scaled to controls: 0 for no effect and ±100 for the full control effect; nearly all actives have a fitted effect of over 50% in size; luciferase read-out
SARS PLpro yeast: SARS-CoV PLP inhibition in yeast | S. cerevisiae expressing SARS-CoV PLpro, growth rescue; control for the full effect not named in the record | actives 0.19% (n = 330,000) | Potency, µM (titrated, usually from 32.9 µM), inactives show at the top dose activity, positive = growth rescue; active means well fitted rising curve with a large enough effect; inconclusive means small, poorly fitted or top-dose-only effect; inactive means no such curve, though single readings can be large or run the other way; also: 0% is about no effect; nearly all actives have a fitted effect of over 55% in size; growth read by luminescence after 48 h
StopGo reporter: lowers the luciferase signal of an FMDV 2A StopGo reporter | human cells with a luciferase reporter of 2A StopGo recoding; control for the full effect not named in the record | Potency, µM (top dose mostly 57.9 µM), for the others: at the top dose signal change, negative = less light | actives 1.2% (n = 410,000) | AID 1159524; active = well fitted falling curve with a large enough effect; inconclusive = small, poorly fitted or top-dose-only effect; inactive = no such curve, though single readings can be large or run the other way; tested in HEK293T cells; also: % is scaled to controls: 0 for no effect and ±100 for the full control effect; nearly all actives have a fitted effect of over 45% in size; luciferase light after 4 h
Cruzain Triton: blocks cruzain activity in presence of Triton detergent; purified cruzain, Z-FR-AMC fluorescence, 0.01% Triton; Potency, µM, for inactives: max response, negative = inhibition, usual class: inhibitors; actives 0.43% (n = 200,000);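 also: plate controls were neutral wells for no effect and buffer without enzyme for full effect; nearly all actives have a fitted effect of over 40% in size; top concentration of the series not given in the record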
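Enzyme 1.5 nM, Z-FR-AMC 2 uM, NaOAc 100 mM pH 5.5, DTT 5 mM, Triton X-100 0.01%; 15 min RT compound preincubation; kinetic ex360/em450, 60 s delta.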
NS1 function inh: inhibitors of influenza NS1 protein function | actives 0.4% (n = 270,000) | AID 2326 | S. cerevisiae slowed by influenza A NS1, growth recovery by OD600 | Potency, µM (series often up to 46.1 µM), without a hit: at the top dose activity, positive = more growth; active means well fitted rising curve with a large enough effect; inconclusive means small, poorly fitted or top-dose-only effect; inactive means no such curve, though single readings can be large or run the other way; also: nearly all actives have a fitted effect of over 50% in size
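A cell-based growth assay was used: compounds that relieve NS1-induced slow growth of budding yeast raise OD600. Assay medium was yeast nitrogen base with ammonium sulphate and -URA supplement, pH 6.0, with 2% galactose.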
Starred values were filed as active, the others as inactive; ? = inconclusive; / = not tested or not shown; & = joins results of further samples; [ ] = dose if it differs, or a comment. Unless noted, calls follow the shape of the dose curve; as a rule, active = well fitted curve in the direction sought with a large enough effect; inconclusive = small, poorly fitted or top-dose-only effect, or another doubt; inactive = no such curve, though single readings can be large; an effect the other way counts as inactive or inconclusive. Potency is read from the fitted curve at half-maximal effect.

SMILES	Cruzain noTriton	RE007 growth inh	Marburg entry inh	LASV entry inh	SARS PLpro yeast	StopGo reporter	Cruzain Triton	NS1 function inh
CCCCNC(=O)C1CC(c2cccc([N+](=O)[O-])c2)=NO1 (stereo not given)	-3%	-17%	/	/	-8%	45%[activator]	-0.6%	5%
COCCn1c(C)cc(O)c(C(c2ccccc2)N2CCCCC2)c1=O (stereo not given)	7%	/	/	2%[46.1 µM]	/	-21%	-0.1%	/
COc1ccc(OCCCn2c(C)nc3cc(C)c(C)cc32)cc1	11%	/	?	5%[46.1 µM]	/	-14%	-3.7%	/
CCOCCCn1c(C)nc2c[n+](CC(=O)c3ccc4ccccc4c3)cc(Br)c21	/	5%	-34%	-10%	1%	0%	/	-4%
CCOC(=O)C1CCCN(CC(=O)Nc2c(C(=O)OC)[nH]c3ccccc23)C1 (stereo not given)	13%	8%	-25%	?	-7%	6%	-1.9%	-10%
COc1ccc(Cl)cc1S(=O)(=O)N1CCN(Cc2cccc(F)c2)CC1	-9%	/	/	4%[46.1 µM]	/	-7%	-2.1%	/
N#Cc1cc2ccccc2nc1SCC(=O)Nc1ccccc1N1CCOCC1	10%	-17%	0%&-13%	7%	0%	5%	-2.5%	-10%
C=CCn1c(SCC(O)Cn2c3ccccc3c3ccccc32)nnc1-c1ccco1 (stereo not given)	12%	-3%	-29%	-7%	-8%	?	-4.0%	-62%
CCCCNC(=O)c1nnn(-c2ccccc2)c1N	9%	-5%	12%	3%	19%	64%[activator]	-1.0%	3%
CN1C(=O)NC(=O)C(N=Nc2ccc(Cl)cc2)C1=O (stereo not given)	/	?	?	-9%	/	-1%	/	/
COc1ccc(-c2cccc(NS(=O)(=O)c3ccc(NC(C)=O)cc3)c2)nn1	-8%	/	/	-2%[46.1 µM]	/	-23%	-1.4%	/
Cc1ccc2c(c1)oc(=O)n2CC(=O)c1ccccc1	/	10%	-4%	2%	0%	-19%	/	-2%
O=C(Cn1cc(C(F)(F)F)ccc1=O)N/N=C/c1ccc(F)cc1	/	-4%	7%[46.1 µM]	1%	-3%	13%	/	/
COc1ccc(NC(=O)C(C)(C)Oc2ccc(Cl)cc2)cn1	/	-14%	23%	0%	-7%	-24%	/	/
COc1cc(C(=O)NCC(c2cccnc2)N2CCN(C)CC2)cc(OC)c1OC (stereo not given)	-6%	1%	7%	0%	-4%	21%	5.7%	-1%
CCn1c(C(=O)Nc2cc(Cl)ccc2C)cc2sc(Cl)cc21	5%	/	?	/	/	15%	39%[activator]	/
CN=Cc1nc(-c2ccccc2)oc1O	-4%	0%	?	?	-30%	-7%	-9.4%	4%
Cc1cc(C(=O)N/N=C/c2cccs2)n[nH]1	/	3%	21%[46.1 µM]	?	0%	31%[activator]	/	/
O=S1(=O)CC(N2CCOCC2)c2ccccc21 (stereo not given)	-7%	-13%	21%[46.1 µM]	15%	12%	-3%	5.3%	11%
CC(=O)NS(=O)(=O)c1ccc(N=c2ssc3c2-c2ccc(C)cc2NC3(C)C)cc1	?	-21%	2%	-28%	-1%	-1%	-25%	23%
COc1ccc(CCNC(=O)c2ccc3c(Cl)c4c(nc3c2)CCCC4)cc1OC	?	/	-2%[46.1 µM]	7%[46.1 µM]	/	?	-2.3%	/
O=[N+]([O-])c1ccc(Cl)c(C2Nc3cccc4cccc(c34)N2)c1	?	-23%	-26%	1%	-9%	-23%	-3.8%	-12%
O=C1OCC2=C1C(c1ccc(Cl)cc1)c1cc3c(cc1O2)OCO3 (stereo not given)	/	3%	?	?	/	-12%	/	/
Cc1ccc(-n2ncc(C(=O)Nc3ccc4c(c3)OCCO4)c2C2CCN(C(=O)OC(C)(C)C)CC2)cc1C	-15%	/	/	?	/	0%	-1.6%	/
COCCCn1c(C)c(C(C)=O)cc(NC(=O)c2ccccc2)c1=O	/	12%	-10%[46.1 µM]	-16%	0%	-5%	/	/
COCCn1c(CN2CCN(C(=O)c3ccco3)CC2)nc2c1c(=O)n(C)c(=O)n2C	/	8%	/	/	0%	-18%	/	2%
COc1ccc(C2c3c(oc4ccccc4c3=O)C(=O)N2CC2CCCO2)cc1 (stereo not given)	-10%	13%	5%	-2%	13%	/	3.7%	-16%
O=S(=O)(NCc1ccccc1)c1ccc(NC(=S)NCc2ccco2)cc1	/	-1%	/	/	0%	12%	/	?
Oc1c(C(c2cccc(Br)c2)N2CCCC2)sc2nc(-c3ccco3)nn12 (stereo not given)	?	/	/	10%[46.1 µM]	/	4%	-5.8%	/
COc1ccc(/C(C)=N/NC(=S)NCCc2ccccc2)cc1	/	-17%	?	?	0%	-18%	/	-31%
CCCCn1c(N)c(N(CC)C(=O)C2=COCCO2)c(=O)[nH]c1=O	/	0%	30%	0%[46.1 µM]	-4%	-8%	/	/
COc1cc(C2Nc3ccc4ncccc4c3C3=C2C(=O)CCC3)cc(OC)c1OC (stereo not given)	/	-13%	/	/	1%	24%	/	-2%
O=C(CN1CC=C(c2ccccc2)CC1)NC(=O)NCc1ccccc1	/	-16%	10%[46.1 µM]	?	-6%	-12%	/	/
O=[N+]([O-])c1cc(S(=O)(=O)NCCc2ccccn2)ccc1Cl	/	-7%	?	8%	-6%	5%	/	/
CCc1cccc(C)c1NC(=O)C1CCCO1 (stereo not given)	-3%	-8%	-2%	3%	-2%	3%	-1.6%	7%
COc1cc(CNCCc2c[nH]c3ccccc23)cc(OC)c1	/	-4%	-63%	?	-2%	-24%	/	4%
CCc1cc(=O)oc2cc(OC(C)C(=O)NCCCn3ccnc3)ccc12 (stereo not given)	/	-4%	0%[46.1 µM]	-17%[46.1 µM]	4%	14%	/	-11%
O=C(NCc1ccccc1)N[C@@H](Cc1ccccc1)C(=O)O	-13%	-11%	8%	-10%	-2%	0%	-0.1%	6%
S=C(c1ccccc1)N(c1ccccc1)c1ccccc1	-1%	2%	-10%	?	6%	?	-4.5%	-15%
Cc1ccc(S(=O)(=O)N2C(=S)SCC2(C)C)cc1	-1%	/	-5%	/	-1%	/	-1.5%	-45%
COc1ccc([N+](=O)[O-])cc1NC(=O)COC(=O)c1ccc(O)cc1	/	?	8%[46.1 µM]	14%	1%	-15%	/	-1%
CCn1cnc2cc(NCc3ccc(Cl)cc3)ccc21	/	-22%	?	?	-1%	22%	/	-5%
O=C(N/N=C/c1ccco1)C1CC(=O)N(c2ccccc2)C1 (stereo not given)	/	17%	0%	-2%	-1%	-12%	/	/
COc1ccc(N(CC(=O)Nc2cc(C)ccc2C)S(=O)(=O)c2c(C)[nH]c(=O)[nH]c2=O)cc1	/	3%	1%[46.1 µM]	3%[46.1 µM]	1%	-8%	/	9%
O=C(CCl)NCCNC(=O)c1cc(OCC(F)(F)F)ccc1OCC(F)(F)F	/	12%	?	-4%	0%	-13%	/	-1%
COc1cccc2nc3c(C(=O)NCCN(C)C)cccc3cc12	/	0%	7.1µM*	?	/	0%	/	/
CCN1CCN(C(=O)c2ccc3c(c2)N(Cc2cccc(Cl)c2)C(=O)c2ccccc2S3=O)CC1 (stereo not given)	-1%	/	/	-2%[46.1 µM]	/	-23%	-0.5%	/
Cc1ccc(S(=O)(=O)CC(=O)NC(C)(C)C)cc1	-14%	6%	15%	-3%	-17%	2%	0.9%	11%
CCCOc1ccc(C(=O)NNC(=O)c2cccc(S(=O)(=O)N3CCN(C(C)=O)CC3)c2)cc1OC	/	8%	28%	-3%	-2%	-5%	/	/
OCCN(CCO)CC(O)Cn1c2ccccc2c2ccccc21 (stereo not given)	-18%	-16%	?	-14%	1%	-2%	0.2%	0%

Next section
SMILES	Cruzain noTriton	RE007 growth inh	Marburg entry inh	LASV entry inh	SARS PLpro yeast	StopGo reporter	Cruzain Triton	NS1 function inh
COc1ccc(CCNC(=O)COC(=O)c2ncc(Cl)c(Cl)c2Cl)cc1OC	/	1%	-3%	4%	0%	-15%	/	/
Cc1nn(-c2ccccc2)c(C)c1C(=O)Oc1ccccc1	/	7%	4%	10%	-1%	42%[activator]	/	-32%
COc1ccccc1NC(=O)C1=C(C)Nc2nc(-c3ccco3)nn2C1c1cccc(C)c1 (stereo not given)	?	/	-18%[46.1 µM]	-33%[46.1 µM]	/	-25%	-12%	/
CCN(CC)CCOC(=O)c1ccc(NC(=O)CCn2c(=O)oc3ccccc32)cc1	4%	/	?	-10%[46.1 µM]	/	1%	-2.4%	/
O=S(=O)(c1ccccc1)N1N=C(c2cccs2)CC1c1ccc(Br)cc1 (stereo not given)	?	37%	?	-20%	2%	3%	3.0%	0%
Cc1nn(Cc2ccccc2)c(Cl)c1/C=C/C(=O)OCC(=O)N1CCCC1=O	/	-8%	9%[46.1 µM]	-1%	0%	-1%	/	-2%
COc1cc(Cl)ccc1OCc1cc(C(=O)NC(C)Cc2cnccn2)no1 (stereo not given)	/	-6%	?	?	-1%	-16%	/	-28%
CCn1c(C)nc2cc(C(=O)N/N=C(\C)c3ccccc3O)ccc21	/	1%	?	-15%	-4%	36%[activator]	/	/
COC(=O)c1ccccc1NC(=O)COC(=O)C1CCCCC1	/	0%	-2%[46.1 µM]	3%[46.1 µM]	-2%	4%	/	-37%
COc1ccc(-n2nc(C(=O)NCC(=O)N3CCN(Cc4ccc5c(c4)OCO5)CC3)c3ccccc3c2=O)cc1OC	/	-1%	?	1%	2%	-9%	/	-4%
Cc1ccccc1N(CC(=O)NCc1ccccc1)C(=O)CCC(=O)Nc1nccs1	/	-6%	-2%	?	-2%	-13%	/	1%
CC1(C)Cc2c(ccc3ccccc23)/C(=C/C(=O)N2CCCCC2)N1	3%	-8%	11µM*	-9%	-6%	?	-7.2%	11%
CCCCN(CC)c1nc(-c2ccncc2)nc2ccccc12	-1%	8%	?	0%	-48%	25µM*	-1.9%	-15%
CCOc1cc(CNC2CCCC2)ccc1OCc1ccccc1Cl	/	-7%	/	/	-1%	?	/	-1%
CCC(C)NC(=O)C1CCC(CNS(=O)(=O)c2ccc(Cl)cc2)CC1 (stereo not given)	0%	/	/	11%[46.1 µM]	/	-8%	-0.2%	/
